AF4-AF9 inh – inhibitors of human MLL-AF4/AF9 interaction. P42568. AlphaScreen, biotin-AF4 peptide binding to FLAG-AF9. inhibition, % at 10 µM. actives 0.47% (n = 350,000). AID 651704;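 active means every replicate reaching a set inhibition limit, whatever the replicate mean, cut at about 25% in these data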;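 further: 0% = plate neutral control median and 100% = total signal loss; the record names both 10 and 1 µM as test concentration; the first replicate is given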
Target sequence (P42568 whole entry, looked up): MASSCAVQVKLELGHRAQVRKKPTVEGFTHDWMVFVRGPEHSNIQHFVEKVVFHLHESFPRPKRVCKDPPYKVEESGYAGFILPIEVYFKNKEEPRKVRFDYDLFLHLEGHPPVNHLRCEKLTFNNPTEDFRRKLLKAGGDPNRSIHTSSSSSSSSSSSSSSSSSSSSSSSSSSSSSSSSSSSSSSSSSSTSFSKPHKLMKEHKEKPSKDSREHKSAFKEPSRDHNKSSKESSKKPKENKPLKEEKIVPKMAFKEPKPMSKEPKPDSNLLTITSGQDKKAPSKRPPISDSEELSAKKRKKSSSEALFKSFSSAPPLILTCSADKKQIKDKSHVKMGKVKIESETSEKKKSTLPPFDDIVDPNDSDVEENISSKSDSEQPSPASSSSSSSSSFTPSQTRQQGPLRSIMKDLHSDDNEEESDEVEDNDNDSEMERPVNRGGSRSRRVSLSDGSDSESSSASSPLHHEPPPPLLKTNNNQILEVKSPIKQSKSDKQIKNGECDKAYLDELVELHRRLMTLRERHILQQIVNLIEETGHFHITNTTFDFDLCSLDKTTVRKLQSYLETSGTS
rRNA inh HTS – inhibitors of bacterial rRNA selective over humanized ribosomes | E. coli WT GFP vs humanized-ribosome RFP mutants, fluorescence, 24 h; hits give low values; DMSO median 0, no signal -100 | GFP signal change (wild-type ribosome), % (concentration not given with the values) | actives 1.6% (n = 350,000);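 active means significant combined selectivity score with lowered wild-type GFP, culture density cut under 30%, mutant RFP and density less affected; inactive means any of these conditions unmet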; further: one replicate is shown; some compounds called inactive have numbers as strong as hits
rRNA inh HTS OD600 – recorded beside rRNA inh HTS, whose call it bears; OD600 change, %; measured here: OD600 growth;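 optical density of the mix in the first replicate; 0 = DMSO median and -100 = no signal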
rRNA inh HTS RFP – recorded beside rRNA inh HTS, whose call it bears; RFP signal change, %; measured here: RFP humanized mutant strains;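 first replicate; 0 = DMSO median and -100 = no signal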
The depositor's hits bear a star; & = joins results of further samples.

A first look, 2 compounds:
SMILES	AF4-AF9 inh	rRNA inh HTS	rRNA inh HTS OD600	rRNA inh HTS RFP
O=C(C[C@@H]1CC[C@H]2[C@@H](COC[C@@H](O)CN2Cc2ccc(Cl)cc2)O1)NCCc1ccccc1	0.8	-13.3	-56.9	15.6
COc1ccccc1NC(=O)N[C@H]1C=C[C@@H](CC(=O)NCc2ccc(Cl)c(Cl)c2)O[C@@H]1CO	-1.3	-3.0	-2.9	1.9

This part in full (from the top)
SMILES	AF4-AF9 inh	rRNA inh HTS	rRNA inh HTS OD600	rRNA inh HTS RFP
O=C(C[C@@H]1CC[C@H]2[C@@H](COC[C@@H](O)CN2Cc2ccc(Cl)cc2)O1)NCCc1ccccc1	0.8	-13.3	-56.9	15.6
COc1ccccc1NC(=O)N[C@H]1C=C[C@@H](CC(=O)NCc2ccc(Cl)c(Cl)c2)O[C@@H]1CO	-1.3	-3.0	-2.9	1.9
O=C1c2[nH]nc(-c3ccccc3)c2C(c2cccc(C(F)(F)F)c2)N1c1ccccc1 (configuration not stated)	-0.2	-7.2	-20.8	6.2
O=S(=O)(c1ccc(F)cc1)N1CCCCN2[C@H](CO)[C@H](c3ccc(-c4ccccc4)cc3)[C@@H]2C1	-5.9	-1.4	-12.4	0.9
CC1(C(=O)NS(=O)(=O)C2CC2)CCCN(C(=O)c2cccc(OC(F)(F)F)c2)C1 (configuration not stated)	-4.7	6.5	14.1	0.1
CCC(=O)N1C[C@H](C)[C@@H](OC)CN(C)C(=O)c2ccc(NC(=O)C3CCOCC3)cc2OC[C@@H]1C	-2.1	0.5	0.9	-0.9
CO[C@H]1CN(C)C(=O)c2ccc(NC(=O)Nc3c(C)noc3C)cc2OC[C@H](C)N(C)C[C@H]1C	-1.5	1.2	7.8	-1.0
O=C(C1CCCN(S(=O)(=O)c2ccc(F)cc2)C1)N1CCOCC1 (configuration not stated)	0.7	4.0	4.9	-2.0
C[C@@H]1CN([C@H](C)CO)C(=O)c2cc(NC(=O)c3ccncc3)ccc2O[C@H]1CN(C)Cc1ccc(C(=O)Nc2ccccc2N)cc1	1.1	-4.4	3.5	-3.2
CCNC(=O)C[C@H]1CC[C@@H]2[C@H](COc3ccc(NC(=O)Cc4ccccc4)cc3C(=O)N2C)O1	-1.6	2.1	-2.6	0.6
CO[C@@H]1CN(C)C(=O)c2ccc(NC(=O)c3cc(C)on3)cc2OC[C@@H](C)N(C(C)=O)C[C@H]1C	0.3	-0.1	2.6	0.5
O=C(NCc1ccccc1)[C@H]1CCCN1C(=O)[C@H]1CCCN1C(=O)c1cccc(F)c1	-1.6	13.7	8.8	0.1
O=C(NC[C@@H]1N[C@@H](CO)[C@H]1c1ccc(C2=CCCC2)cc1)c1ccccc1	8.0	-56.0	-75.4	-7.1
Cc1noc(C)c1NC(=O)N(C)C[C@H]1OCCCC[C@@H](C)Oc2ccc(NC(=O)Nc3ccc4c(c3)OCO4)cc2C(=O)N([C@H](C)CO)C[C@@H]1C	-0.6	3.7	5.1	-2.7
CCCC#Cc1ccc([C@H]2[C@@H](C#N)N(C(=O)C3CC3)[C@H]2CO)cc1	-19.9	2.7	-13.0	5.9
O=C(C[C@H]1C[C@@H]2c3cc(NC(=O)Nc4ccccc4F)ccc3O[C@@H]2[C@H](CO)O1)NCc1ccccn1	-4.0&-3.3	16.0&1.1	2.5&4.4	4.4&1.6
CC(C)NC(=O)Nc1ccc2c(c1)C(=O)N([C@@H](C)CO)C[C@H](C)[C@@H](CN(C)C(=O)Nc1ccc(F)cc1)O2	0.0	5.4	-0.8	-0.9
O=C(NCC[C@@H]1CC[C@H](NS(=O)(=O)c2cccc(F)c2)[C@@H](CO)O1)C1CCCCC1	0.1	-4.2	2.0	-0.6
C[C@@H]1CN([C@@H](C)CO)C(=O)Cc2cc(NC(=O)Nc3cccc4ccccc34)ccc2O[C@@H]1CN(C)S(=O)(=O)c1ccc(F)cc1	-0.4	4.2	0.1	-0.4
O=C(c1ccncc1)N1CC[C@H]2[C@H](CO)Nc3ccc(-c4ccc(F)cc4)cc3[C@H]21	5.1	-7.7	1.9	2.3
CC(=O)N(C)C[C@@H]1Oc2cc(-c3ccccc3F)ccc2S(=O)(=O)N([C@@H](C)CO)C[C@H]1C	-2.2	-6.3	-13.2	-1.6
C[C@@H]1CN([C@@H](C)CO)S(=O)(=O)c2ccc(-c3cccc(C#N)c3)cc2O[C@@H]1CN(C)C(=O)c1ccncc1	-4.9	2.7	-21.5	2.8
C[C@@H]1CN([C@@H](C)CO)C(=O)c2cc(NS(=O)(=O)c3ccccc3)ccc2O[C@H]1CN(C)Cc1ccccc1	-1.6	0.0	0.2	0.6
CC(C)NC(=O)NCC[C@@H]1CC[C@H](NS(=O)(=O)c2ccc(Oc3ccccc3)cc2)[C@@H](CO)O1	4.7	-3.2	-10.5	1.2
COc1ccccc1NC(=O)N1CC[C@@H]2[C@H]1c1cc(C#Cc3ccc(F)cc3)ccc1N(C)[C@@H]2CO	-2.8	-2.0	6.3	-7.1
Cc1ccc(S(=O)(=O)NC(=O)C2(C)CCN2C(=O)CC2CCCC2)nc1 (configuration not stated)	-2.6	19.4	14.9	-2.2
C[C@@H]1CN([C@@H](C)CO)C(=O)c2cc(NS(=O)(=O)c3cn(C)cn3)ccc2O[C@@H](C)CCCCO[C@@H]1CN(C)C(=O)Nc1ccc(F)cc1	3.7	0.7	0.6	-1.8
C[C@@H]1CCCCO[C@H](CN(C)C)[C@H](C)CN([C@H](C)CO)C(=O)c2cc(NC(=O)c3ccccc3)ccc2O1	5.8	3.6	-6.4	-0.6
C[C@@H]1CCCCO[C@@H](CN(C)C(=O)Nc2ccc(F)cc2)[C@H](C)CN([C@H](C)CO)C(=O)c2cc(NS(=O)(=O)c3ccc(Cl)cc3)ccc2O1	-3.0	0.0	0.6	-1.4
C[C@H]1CN([C@@H](C)CO)C(=O)Cc2cc(NC(=O)NC3CCCCC3)ccc2O[C@@H]1CN(C)C(=O)Nc1ccc(C(F)(F)F)cc1	-8.4	-0.5	-5.2	0.1
CO[C@H]1CN(C)C(=O)c2ccc(NC(=O)c3nc4ccccc4s3)cc2OC[C@H](C)N(Cc2cncnc2)C[C@@H]1C	7.9	-2.9	-8.4	4.6
C[C@H](CO)N1C[C@H](C)[C@H](CN(C)C(=O)Nc2ccc(F)cc2)Oc2ccc(NC(=O)Nc3ccc(C(F)(F)F)cc3)cc2C1=O	2.9	-2.4	-5.3	0.2
C/C=C/c1cnc2c(c1)C(=O)N([C@H](C)CO)C[C@H](C)[C@@H](CN(C)C(=O)c1cnccn1)O2	-2.5	2.8	-2.6	-3.9
C[C@@H]1CCCCO[C@@H](CN(C)S(=O)(=O)c2cn(C)cn2)[C@@H](C)CN([C@H](C)CO)C(=O)c2cc(NC(=O)NC3CCCCC3)ccc2O1	-1.9	2.7	10.9	-0.7
CCNC(=O)[C@H]1[C@H](CO)[C@H]2Cn3c(ccc(-c4ccc(OC)cc4)c3=O)[C@H]2N1Cc1nccs1	1.6	2.3	7.9	-1.0
CCCNC(=O)N1C[C@H](O)COC[C@H]2O[C@H](CC(=O)N[C@H]3CCN(Cc4ccccc4)C3)CC[C@@H]21	-2.9	3.8	-1.1	-4.2
CO[C@H]1CN(C)C(=O)c2ccc(NC(=O)c3ccccc3)cc2OC[C@@H](C)N(C)C[C@H]1C	-1.9	0.1	7.4	-1.7
C[C@H]1CN([C@@H](C)CO)S(=O)(=O)c2ccc(Br)cc2O[C@H]1CN(C)Cc1ccccn1	-4.7	2.6	9.8	-3.6
CN1C(=O)c2cc(NC(=O)c3cnccn3)ccc2OC[C@H]2O[C@@H](CC(=O)N[C@H]3CCN(Cc4ccccc4)C3)CC[C@H]21	10.7	6.3	8.5	-1.9
CO[C@H]1CN(C)C(=O)c2ccc(NC(=O)c3cc(C)on3)cc2OC[C@H](C)N(C)C[C@H]1C	-0.4	1.5	0.6	-0.8
CN1c2ccc(-c3ccccc3)cc2[C@H]2[C@H](CCN2C(=O)c2ccncc2)[C@H]1CO	7.5	-0.3	-8.6	1.1
COc1cccc(-c2ccc3c(c2)O[C@H](CN(C)C(=O)C2CCOCC2)[C@@H](C)CN([C@H](C)CO)S3(=O)=O)c1	-8.3	-5.7	-7.6	-2.1
Cc1ccc(S(=O)(=O)Nc2ccccc2NS(=O)(=O)c2ccc(C)cc2)cc1	-4.4	-26.8	-34.5	2.4
C[C@@H]1CCCCO[C@H](CN(C)C(=O)NC2CCCCC2)[C@@H](C)CN([C@H](C)CO)C(=O)c2cc(NC(=O)Nc3ccc4c(c3)OCO4)ccc2O1	-1.3	0.5	0.3	-3.6
C/C=C/c1ccc(C2[C@H]3CNC[C@@H]2N3S(=O)(=O)c2ccccc2C)cc1 (some centres not stated)	5.2&3.5	-2.4&-56.7	-5.7&-75.8	-0.9&-12.6
CO[C@H](CN(C)C(=O)Nc1ccc(F)cc1)[C@H](C)CN(Cc1ccccc1Cl)[C@H](C)CO	0.4	0.1	-4.1	-6.7
Cc1ccc(S(=O)(=O)N(C)C[C@@H]2OCCCC[C@@H](C)Oc3ccc(NC(=O)NC(C)C)cc3C(=O)N([C@H](C)CO)C[C@H]2C)cc1	2.8	-3.3	-0.6	0.4
C[C@@H]1CCCCO[C@@H](CN(C)S(C)(=O)=O)[C@H](C)CN([C@@H](C)CO)C(=O)c2cc(N(C)C)ccc2O1	-0.7	3.6	-2.6	0.3
Cc1noc(C)c1S(=O)(=O)Nc1ccc2c(c1)C(=O)N([C@H](C)CO)C[C@H](C)[C@H](CN(C)Cc1ccc3c(c1)OCO3)O2	0.5	2.1	0.7	-1.4
CC(C)NC(=O)Nc1ccc2c(c1)CC(=O)N([C@@H](C)CO)C[C@@H](C)[C@@H](CN(C)Cc1ccccc1)O2	-22.8	5.2	8.7	-0.5
C[C@H](CO)N1C[C@H](C)[C@H](CN(C)C(=O)Nc2ccc(C(F)(F)F)cc2)OCCCC[C@H](C)Oc2ccc(NS(=O)(=O)c3ccc(F)cc3)cc2C1=O	-2.6	6.9	2.3	0.5
C[C@@H]1CCCCO[C@H](CN(C)Cc2ccc3c(c2)OCO3)[C@@H](C)CN([C@H](C)CO)C(=O)c2cc(NC(=O)CCCN(C)C)ccc2O1	-7.9	4.1	1.9	-1.4
C[C@@H]1CN([C@H](C)CO)C(=O)Cc2cc(NC(=O)Nc3ccc(F)cc3)ccc2O[C@H]1CN(C)C(=O)Nc1ccccc1	2.4	0.1	6.6	1.4
C[C@H]1CN([C@@H](C)CO)C(=O)CCCn2cc(nn2)CO[C@H]1CN(C)S(=O)(=O)c1ccc(C#N)cc1	1.6	1.1	1.4	1.0
COc1ccc(S(=O)(=O)N(C)C[C@@H]2Oc3ccc(NC(=O)Nc4ccccc4)cc3CC(=O)N([C@H](C)CO)C[C@H]2C)cc1	2.0	-0.3	0.3	0.1
COC(=O)[C@H]1[C@H](CO)[C@H]2Cn3c(ccc(-c4ccc(OC)cc4)c3=O)[C@H]2N1C	-4.1	-0.3	2.6	2.5
COc1ccc(-c2ccc([C@H]3[C@@H](CO)N4C(=O)CN(C(=O)C5CCCC5)C[C@H]34)cc2)cc1	-0.3	-5.0	-8.2	5.5
CCCC#Cc1cnc2c(c1)C(=O)N([C@@H](C)CO)C[C@H](C)[C@@H](CN(C)C(=O)Nc1ccc(OC)cc1)O2	0.5	-0.8	1.6	1.7
COc1ccccc1-c1cn(CC[C@H]2CC[C@H](NC(=O)CCN3CCCCC3)[C@H](CO)O2)nn1	1.1	-1.3	5.7	-0.3
O=C(Cc1ccccn1)NCC[C@H]1CC[C@H](NS(=O)(=O)c2ccc(Cl)cc2)[C@@H](CO)O1	1.0	2.6	-1.0	0.4
(further entries)
SMILES	AF4-AF9 inh	rRNA inh HTS	rRNA inh HTS OD600	rRNA inh HTS RFP
CS(=O)(=O)Nc1ccc2c(c1)[C@H]1C[C@@H](CC(=O)NCc3cccnc3)O[C@H](CO)[C@H]1O2	-1.1	1.3	1.1	-3.0
C[C@H](CO)N1C[C@H](C)[C@H](CN(C)CC2CC2)Oc2cc(C#Cc3ccccn3)ccc2S1(=O)=O	1.1	-1.3	3.8	2.5
O=C(C1CCCC1)N1CC2(C1)[C@@H](c1ccccc1)[C@H](CO)N2Cc1ccc(Cl)cc1	5.1	-14.8	-50.5	2.9
CCCNC(=O)Nc1ccc2c(c1)OC[C@H](C)N(Cc1ccccn1)C[C@@H](C)[C@H](OC)CN(C)C2=O	-1.5	3.7	3.0	-1.2
CO[C@@H]1CN(C)C(=O)c2cc(NC(C)=O)ccc2OC[C@@H](C)N(Cc2ccc(F)cc2)C[C@H]1C	0.5	-1.8	-5.7	-3.4
C[C@H]1CN([C@@H](C)CO)C(=O)c2cc(NC(=O)Nc3ccc4c(c3)OCO4)ccc2O[C@H]1CN(C)S(=O)(=O)c1ccccc1	3.6	-4.3	-9.6	0.6

4 records picked at random from the list so far:
SMILES	AF4-AF9 inh	rRNA inh HTS	rRNA inh HTS OD600	rRNA inh HTS RFP
CO[C@H]1CN(C)C(=O)c2ccc(NC(=O)c3ccccc3)cc2OC[C@@H](C)N(C)C[C@H]1C	-1.9	0.1	7.4	-1.7
O=C1c2[nH]nc(-c3ccccc3)c2C(c2cccc(C(F)(F)F)c2)N1c1ccccc1 (configuration not stated)	-0.2	-7.2	-20.8	6.2
Cc1ccc(S(=O)(=O)Nc2ccccc2NS(=O)(=O)c2ccc(C)cc2)cc1	-4.4	-26.8	-34.5	2.4
C[C@@H]1CCCCO[C@@H](CN(C)S(C)(=O)=O)[C@H](C)CN([C@@H](C)CO)C(=O)c2cc(N(C)C)ccc2O1	-0.7	3.6	-2.6	0.3

Compound activity from PubChem.

Only part of the results is shown; the hit share may differ from the screen's.
